Vif A3G: inhibitors of Vif binding to APOBEC3G peptide, primary screen, biochemical, TR-FRET, GST-Vif 1-94, biotin-A3G peptide, dose response retest (AID 1117319); Virion infectivity factor (Human immunodeficiency virus type 1 group M subtype B (isolate …; TR-FRET GST-Vif / biotin-A3G peptide binding; higher % means a stronger effect; test concentration not given here; strong numbers were not always called active; one-dose inhibition, %; IC50 in µM for titrated hits; actives 0.57% (n = 260,000);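 active = above the screen mean plus three standard deviations and confirmed in dose response; inconclusive = results disagree or hit not tested in dose response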;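 also: Vif residues 1-94 fused to GST binding biotinylated APOBEC3G peptide 110-148; 0% = full assay without inhibitor and 100% = GST in place of GST-Vif; retest series ran down from 100 µM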
MLL AF4-AF9 inh: inhibitors of AF4 peptide binding to AF9, primary screen, biochemical, AlphaScreen, biotin-AF4 peptide, FLAG-AF9, single point | inhibition, % at 10 µM | AID 651704, 2012 | actives 0.47% (n = 350,000) | Protein AF-9 (Homo sapiens), P42568;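 active = every replicate reaching a set inhibition limit, whatever the replicate mean, cut at about 25% in these data; inconclusive = mean inhibition reaches that limit but some replicates miss it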;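 also: 0% = plate neutral control median and 100% = total signal loss; the record names both 10 and 1 µM as test concentration; the first replicate is given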
LANA-H2A inh: blockers of LANA interaction with H2A/H2B – biochemical, FP readout, HTS, primary screen; cell-free LANA-H2A/H2B peptide, fluorescence polarization; AID 2629, 2010; actives 0.6% (n = 320,000); inhibition, % (test concentration not listed); in the data active = inhibition mostly above about 10%, no sharp cut-off; inactive = mostly below about 6.7%;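 also: stock transfer was 7.5 nL into about 10 µL; 0% = median of vehicle wells and 100% = median of positive control wells; one replicate is shown; the record names a cut of 25% in any replicate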
Target sequence (Q9QR71 whole entry, looked up): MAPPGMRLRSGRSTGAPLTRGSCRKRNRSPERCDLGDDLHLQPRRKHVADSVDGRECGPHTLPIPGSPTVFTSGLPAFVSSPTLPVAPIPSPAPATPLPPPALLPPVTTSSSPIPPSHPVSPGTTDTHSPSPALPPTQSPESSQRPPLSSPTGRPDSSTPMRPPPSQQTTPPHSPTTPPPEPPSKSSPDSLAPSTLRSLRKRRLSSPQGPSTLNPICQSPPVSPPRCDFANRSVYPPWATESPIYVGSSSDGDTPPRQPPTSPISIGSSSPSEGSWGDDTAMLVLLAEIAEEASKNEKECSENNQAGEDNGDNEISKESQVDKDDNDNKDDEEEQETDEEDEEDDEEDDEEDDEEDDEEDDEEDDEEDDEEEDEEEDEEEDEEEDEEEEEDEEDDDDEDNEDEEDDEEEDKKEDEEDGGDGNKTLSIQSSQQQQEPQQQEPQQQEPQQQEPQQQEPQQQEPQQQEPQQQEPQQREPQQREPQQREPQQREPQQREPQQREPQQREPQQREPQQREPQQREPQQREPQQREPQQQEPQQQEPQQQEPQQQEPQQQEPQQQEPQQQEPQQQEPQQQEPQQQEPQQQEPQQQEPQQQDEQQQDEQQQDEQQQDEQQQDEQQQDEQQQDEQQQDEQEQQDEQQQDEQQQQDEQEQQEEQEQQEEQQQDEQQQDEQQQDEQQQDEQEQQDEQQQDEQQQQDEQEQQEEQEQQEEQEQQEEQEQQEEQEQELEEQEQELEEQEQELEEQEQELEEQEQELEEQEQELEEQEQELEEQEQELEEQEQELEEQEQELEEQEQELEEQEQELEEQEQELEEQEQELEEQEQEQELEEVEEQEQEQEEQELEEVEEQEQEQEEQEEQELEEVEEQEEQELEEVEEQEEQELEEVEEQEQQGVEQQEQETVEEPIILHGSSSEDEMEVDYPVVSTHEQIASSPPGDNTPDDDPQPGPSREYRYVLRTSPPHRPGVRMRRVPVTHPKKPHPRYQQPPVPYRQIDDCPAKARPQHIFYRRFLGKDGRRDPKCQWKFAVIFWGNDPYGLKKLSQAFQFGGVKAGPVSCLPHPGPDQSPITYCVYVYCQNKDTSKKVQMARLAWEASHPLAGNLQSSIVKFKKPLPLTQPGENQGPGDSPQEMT
Calb FLC: C. albicans growth inhibition with fluconazole, primary screen, CaCi-2 strain, Alamar Blue fluorescence; C. albicans CaCi-2 (fluconazole-resistant clinical isolate) + fluconazole, 48 h; actives 0.57% (n = 300,000); growth inhibition, % (concentration not given with the values);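 active = most replicates above 75%; inconclusive = exactly half above 75%; inactive = most below 75%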;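 also: all wells also contain fluconazole at 8 µg/ml as a sub-toxic cotreatment; 0% = median of DMSO wells and 100% = median of geldanamycin control wells; wells of about 8 µL received 7.5 nL stock; the first replicate is given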
RanGTP-Imp inh: inhibitors of RanGTP-importin-beta interaction, primary screen, biochemical, FRET, CFP-Ran, YFP-importin-beta, homogeneous | cell-free CFP-Ran/YFP-importin-beta FRET ratio | inhibition, % (no concentration beside the values) | actives 1.1% (n = 300,000) | AID 2216, 2009;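 active = most replicates above 15%; inconclusive = exactly half above 15%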;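 also: 0% = DMSO wells and 100% = Ran loaded with GDP instead of GTP; wells of about 40 µL received 100 nL stock; the first replicate is given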
Beta apoptosis: inhibitors of cytokine-induced beta cell apoptosis, primary screen, luminescence; INS-1E cytokine-induced death, ATP luminescence, 48 h; percent of positive-control rescue, neutral wells zero; protection from apoptosis, % (concentration not given with the values); actives 0.8% (n = 300,000);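 active = all replicates at 75% or more, or half of them and the mean; inconclusive = half reach 75% but not the mean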;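 also: 0% = cytokine-treated negative control wells and 100% = positive control rescue; higher means more ATP so stronger rescue from cytokine killing; wells of about 40 µL received 100 nL stock; the first replicate is given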
A1 inh: caspase 3/7 activation in MEF A1-2A-BIM cells, primary screen, A1 inhibitor project, cell-based, luminescence, HTS | AID 2462, 2010 | actives 0.066% (n = 330,000) | Caspase-Glo 3/7 luminescence, 3 h; percent of clofoctol response, vehicle zero | caspase activation, % (no concentration beside the values);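 active = over half of replicate activation scores above 10%, or exactly half above 10 with the replicate mean above 10; inconclusive = replicate mean below 10 yet half the replicates above 10; inactive = over half of replicates below 10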;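 also: wells of about 30 µL received 50 nL stock; many hits fall short of the cut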
T cruzi repl: inhibitors of intracellular T. cruzi growth, primary screen, luminescence, NIH3T3 host cells; T. cruzi beta-gal in NIH3T3, 90 h; inhibition, % (no concentration beside the values); actives 1.4% (n = 300,000); AID 1885, 2009;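 active = mean inhibition across valid replicates above about 55%, limit read from the data; inconclusive = mean below that limit but half or more replicates reach it; inactive = mean below it, under half of replicates reach it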;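 also: signal also drops with host cell toxicity which is not excluded here; 0% = plate median of DMSO wells and 100% = zero luminescence signal; higher percent means less beta-gal luminescence so fewer parasites; stock transfer was 50 nL into about 50 µL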
Active calls of the source: *; ? = inconclusive; / = not tested or not shown.

Value order – Vif A3G	MLL AF4-AF9 inh	LANA-H2A inh	Calb FLC	RanGTP-Imp inh	Beta apoptosis	A1 inh	T cruzi repl
> CN(C)/C=C/C(=O)c1ccc2noc(-c3ccccc3)c2c1
    /	1.6	-1.6	-2.2	4.7	-13.7	0.4	-9.4
> Cc1ccc(C(=O)N2CC(C(=O)O)C2)cc1
    -4.2%	-16.5	-1.5	1.9	?	-1.1	0.6	-4.5
> CCOC(=O)C1=C(C)N(C2CCCCC2)C(=O)C1
    -5.4%	/	-0.4	32.7	0.6	2.8	-1.8	-10.0
> COc1ccccc1CNC(=O)CCc1ccccc1
    /	2.5	-2.2	-16.8	-0.5	-0.9	0.5	12.8
> COC(=O)c1sccc1NC(=O)COc1ccc(C)cc1
    -3.4%	-1.3	1.7	3.0	6.0	-7.1	-5.6	-3.3
> CC(=O)C1=C(O)C(=O)OC1c1ccc(C)cc1 (stereo not given)
    ?	0.9	-22.4	-1.0	?	/	-0.3	-6.4
> Cc1cccc(C)c1NC(=O)CNC(=O)c1ccc(NS(=O)(=O)c2ccc3[nH]c(=O)[nH]c3c2)cc1
    -2.1%	-0.7	-0.8	-3.5	0.9	-2.6	-0.1	19.5
> Cc1cn(CC2COC(C)(C)O2)c(=O)[nH]c1=O (stereo not given)
    20.5%	/	-0.2	-1.5	4.0	-5.4	0.1	1.0
> Cc1ccc(S(=O)(=O)N/N=C/c2c[nH]c3ccccc23)cc1
    12.2%	-0.4	-3.5	19.5	-0.3	-5.0	1.0	-19.2
> CN(C)C(=O)CSc1ccc(S(=O)(=O)N2CCOCC2)cn1
    -0.3%	-1.3	-1.7	/	/	-1.2	0.9	/

Limited to Vif A3G, for some of the entries so far:
| SMILES | Vif A3G |
| --- | --- |
| Cc1ccc(C(=O)N2CC(C(=O)O)C2)cc1 | -4.2% |
| CCOC(=O)C1=C(C)N(C2CCCCC2)C(=O)C1 | -5.4% |

(more compounds)
Value order – Vif A3G	MLL AF4-AF9 inh	LANA-H2A inh	Calb FLC	RanGTP-Imp inh	Beta apoptosis	A1 inh	T cruzi repl
> COc1ccc(CNCc2cccc3ccccc23)cc1
    3.8%	-0.4	-1.0	-7.3	6.9	/	-0.8	7.1
> Cc1ccc(O)c(N=Cc2cccs2)c1
    ?	/	-2.7	0.2	-2.4	-0.7	-1.2	14.6
> CCOc1ccc(CCNC(=O)CS(=O)Cc2nc(-c3ccc(OC)cc3)oc2C)cc1OCC (stereo not given)
    /	-15.4	-0.3	1.0	2.5	-2.2	0.7	10.2
> COc1ccc(NC(=O)CSc2ccc3nnc(CCNC(=O)c4ccccc4)n3n2)cc1
    -10.4%	-8.7	4.9	-7.5	?	-1.0	-0.2	0.7
> CC(/C=N/NC(=O)C(O)c1ccccc1)=C\c1ccccc1 (stereo not given)
    5.2%	-10.6	1.7	-34.2	-3.0	-1.9	0.3	-4.9
> COCCNC(=S)N1CCC(NC(=O)C23CC4CC(CC(C4)C2)C3)CC1
    0.4%	-2.8	2.8	-5.5	-2.7	-2.3	1.2	32.6
> CCNC(=O)COC(=O)CNC(=O)c1cc(Cl)cc([N+](=O)[O-])c1
    -2.5%	1.8	-2.2	-2.3	-3.9	-9.0	-0.5	1.2
> COc1ccc(-c2cc(C(=O)Nc3ccc(S(=O)(=O)Nc4onc(C)c4C)cc3)c3ccccc3n2)cc1
    13.2%	11.9	1.3	16.2	1.5	-4.8	0.0	-16.8
> Cc1ccc(S(=O)(=O)N2CCC(C(=O)NCCN3CCCCCC3)CC2)cc1
    -3.7%	/	4.0	1.8	3.3	/	-0.4	26.9
> CC(C)(C)c1csc(CS(=O)(=O)c2ccccn2)n1
    24.9%	2.3	-4.2	-2.0	4.0	3.5	-0.8	-9.9
> O=C(O)CCCCCN1C(=O)/C(=C/c2ccncc2)SC1=S
    /	/	-2.6	2.8	0.4	-32.9	0.3	-8.0
> CN1CCN(c2nc(-c3cccc([N+](=O)[O-])c3)nc3ccccc23)CC1
    32.5%	15.7	-3.4	-22.2	-1.6	-0.2	2.6	42.2
> COc1cc(NC(=O)CSCc2cnn(-c3ccccc3)c2-n2cccc2)cc(OC)c1
    24.8%	/	4.6	25.1	1.3	-3.8	0.2	7.9
> O=c1[nH]nc(Cc2ccc(Cl)cc2Cl)c2ccccc12
    -5.0%	/	5.8	-1.1	-1.8	14.5	-0.1	12.7
> CC(=O)c1ccc(S(=O)(=O)N2CCn3cccc3C2C)cc1 (stereo not given)
    -2.9%	5.4	5.9	/	/	-3.3	0.0	/
> COc1ccc(/C(C)=N/NC(=O)CNC(=O)c2cccnc2)c(OC)c1
    3.5%	-3.2	1.5	-4.8	-0.5	1.3	0.4	2.8
> Cc1ccc(N2CC(C(=O)NCCC3=CCCCC3)CC2=O)cc1 (stereo not given)
    -3.1%	-2.4	2.5	17.1	2.2	2.7	1.6	-7.3
> CCOC(=O)[C@H]1[C@H]2COc3ccc(Br)cc3[C@@H]2N2C(=O)c3ccc(F)cc3NC(=O)[C@@]12C
    /	4.4	3.1	/	/	-2.8	-1.0	/
> N#CCCN(CCC#N)C(=O)c1ccc(Cl)cc1
    -5.8%	-23.9	0.3	5.9	-1.1	0.6	0.1	-13.7
> C[C@]12CC[C@H](O)CC1=CCC1C2CC[C@@]2(C)C1CC[C@@H]2NC(=O)[C@@H](N)Cc1ccccc1 (stereo not given in full)
    -4.9%	1.4	-3.2	/	/	-1.3	-1.2	/

2 records drawn at random from the list so far, as already listed:
Value order – Vif A3G	MLL AF4-AF9 inh	LANA-H2A inh	Calb FLC	RanGTP-Imp inh	Beta apoptosis	A1 inh	T cruzi repl
> COc1ccc(/C(C)=N/NC(=O)CNC(=O)c2cccnc2)c(OC)c1
    3.5%	-3.2	1.5	-4.8	-0.5	1.3	0.4	2.8
> CCOC(=O)[C@H]1[C@H]2COc3ccc(Br)cc3[C@@H]2N2C(=O)c3ccc(F)cc3NC(=O)[C@@]12C
    /	4.4	3.1	/	/	-2.8	-1.0	/

The listing continues.
Value order – Vif A3G	MLL AF4-AF9 inh	LANA-H2A inh	Calb FLC	RanGTP-Imp inh	Beta apoptosis	A1 inh	T cruzi repl
> C[C@@H]1CN(Cc2nc(-c3cccs3)no2)C[C@H](C)O1
    /	-7.3	4.1	-0.4	2.0	-6.5	-0.1	-0.4
> COc1ccc2c(c1)c(-c1csc(N)n1)c(C)n2C
    1.1%	4.6	5.2	4.1	1.2	/	-0.1	8.2
> CCOC(=O)C1CCCN(CCC(=O)Nc2cc(C)ccc2C)C1 (stereo not given)
    4.2%	-1.9	-3.5	-35.3	-0.5	-4.5	0.0	9.5
> Cc1cccc(C)c1NC(=O)COc1ccc2c(C)c(Cc3ccccc3)c(=O)oc2c1C
    ?	-4.7	1.4	24.0	-3.0	10.3	?	-6.7
> COc1cccc(NC(=O)N2CCCC2C(=O)Nc2cc(C)ccc2OC)c1 (stereo not given)
    /	3.4	-2.0	8.7	3.5	-7.5	0.5	11.8
> COc1ccc(NS(=O)(=O)c2cc(C(=O)Nc3ccccc3C(=O)O)ccc2C)cc1
    3.4%	-2.8	2.3	20.1	5.6	0.1	0.5	3.6
> CNC(=S)NNC(=O)c1cccs1
    9.1%	0.7	3.9	0.8	5.2	2.5	-0.1	13.6
> Cc1csc2c(N3CCN(C(=S)Nc4ccc(F)cc4F)CC3)ncnc12
    0.2%	0.6	2.2	-3.4	-0.1	-1.7	-0.3	/
> CCN(Cc1ccncc1)Cc1nc(-c2ccc(C(=O)OC)cc2)no1
    /	-1.2	9.6*	-10.1	8.2	/	-0.2	22.6
> CC(CCc1ccco1)NC(=O)Cn1ncc2c(=O)oc3ccccc3c21 (stereo not given)
    ?	-4.8	-5.2	0.2	5.4	-3.1	1.1	0.9

Next section.
| structure | Vif A3G | MLL AF4-AF9 inh | LANA-H2A inh | Calb FLC | RanGTP-Imp inh | Beta apoptosis | A1 inh | T cruzi repl |
| --- | --- | --- | --- | --- | --- | --- | --- | --- |
| O=C(CCN1C(=O)C2CC=CCC2C1=O)OCC(=O)c1ccc(F)cc1 (stereo not given) | / | -1.9 | 6.6 | / | / | -6.7 | 0.9 | / |
| O=C1CC(N(CCc2ccccc2)C(=S)Nc2ccccc2)C(=O)N1c1ccc(F)cc1 (stereo not given) | -2.5% | / | 3.1 | 9.9 | 2.9 | 12.9 | 0.4 | 52.9 |
| CC(C)=C1C2CC2C2C(C(=O)O)C12 (stereo not given) | -2.6% | / | 1.1 | 16.4 | ? | -5.3 | 0.1 | -10.0 |
| Cc1nn(Cc2ccc([N+](=O)[O-])cc2)c(=O)n1-c1cccc(Cl)c1 | -12.2% | 1.9 | -3.4 | 11.4 | 20.4* | 1.9 | 0.0 | -7.5 |
| COc1ccc(NC(=S)NC2CC3CCC2C3)c(OC)c1 (stereo not given) | -4.2% | 3.2 | -1.4 | -3.5 | 1.0 | -5.6 | -0.5 | -5.9 |
| COc1ccccc1C(C)NC(=O)c1ccc(C)o1 (stereo not given) | 5.0% | / | -2.1 | -3.8 | -1.7 | -13.1 | -0.3 | 0.4 |
| Cn1c(SCc2ccccc2Cl)nc2c1c(=O)[nH]c(=O)n2C | -2.8% | -6.3 | -1.3 | 4.5 | ? | -6.3 | -0.7 | 3.2 |
| N/N=C(\Cc1cscn1)c1ccc(O)cc1O | 4.2% | 3.3 | 5.0 | -1.1 | -3.9 | -3.4 | -0.6 | 2.3 |
| CN(C(=O)CN1C(=O)NC2(CCc3ccccc32)C1=O)C1CCCCC1 (stereo not given) | / | -6.5 | -2.1 | / | / | 0.9 | -0.2 | / |
| CCN1CCN(c2ccc(Nc3ccnc4ccccc34)cc2)CC1 | 14.4% | 19.5 | -3.4 | / | / | 3.9 | 1.2 | / |
| O=P(COCCOCCOCP(=O)(c1ccccc1)c1ccccc1)(c1ccccc1)c1ccccc1 | / | -0.1 | 6.5 | -6.7 | 0.4 | -3.8 | 0.1 | -4.8 |
| Cc1cc(C)n2nc(C(=O)OCC(=O)c3ccccc3Cl)nc2n1 | -8.0% | 2.2 | 0.1 | / | / | -4.3 | 0.3 | / |
| O=C(Nc1cccnc1)c1cnn2cccnc12 | 1.4% | / | 0.2 | 1.6 | 9.4 | -9.5 | -0.5 | -6.6 |
| O=C(c1ccc2c(c1)OCCO2)N1CCN(S(=O)(=O)c2c(F)cccc2F)CC1 | / | -0.5 | -11.1 | / | / | -5.0 | ? | / |
| O=C(Nc1ccccc1Cl)Nc1ccnn1C1CCN(C(=O)CCN2CCCO2)CC1 | / | 8.6 | 0.4 | -14.6 | 1.2 | -3.8 | 0.5 | -3.4 |
| COc1ccc(/C(C)=N/NC(=O)c2cccc(S(=O)(=O)N3CCCC3)c2)c(O)c1 | -4.6% | -15.1 | -1.7 | 4.7 | / | 108.7* | 1.1 | 60.9* |

Source: PubChem BioAssay (several laboratories)
